# High-throughput results (PubChem)
# Biofilm kill mix: mixtures killing C. albicans biofilm; C. albicans biofilm persisters + clotrimazole, fluorescence viability; primary screen in compound mixtures of four per well; inhibition, % at 7.6 µM; 120,000 compounds, 0.02% hits;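 active means inhibition above 30.3% in the primary screen of four-compound pools, then above 30% when the compound was retested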;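 further: compounds exposed to preformed 24 h biofilms for 48 h; the number belongs to the whole pool; some results filed as inactive read as strong as hits; inactives centre near 12; 0% = biofilm with clotrimazole alone and 100% = kill control; retested singly at about 60 µM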
#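 Incubation: 24 h biofilm formation, then 48 h compound exposure, 37 °C | Material: C. albicans biofilms | Buffer or medium: RPMI/MOPS medium, pH 7.0 | Measured by: 2-h Alamar Blue fluorescence, 535/590 nm excitation/emission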
# The depositor's hits bear a star. An excerpt; the hit share may differ from the screen's.
SMILES,Biofilm kill mix
O=C(Nc1ccc(F)cc1)C(NC1CCCCC1)c1ccccc1 (stereo not given),11
CCn1c(SCC(=O)N/N=C/c2ccc(C)s2)nc2ccccc21,13
Cc1ccc(C(=O)N/C(=C/c2ccco2)C(=O)OCN2C(=O)c3ccccc3C2=O)cc1,16
Cc1ccc(Cn2cc(S(=O)(=O)c3ccc(C(C)C)cc3)c(=O)c3cc4c(cc32)OCO4)cc1,11
Clc1cc(Br)ccc1OCCCn1ccnc1,17
NNc1nc(NCc2ccccc2)nc(N2CCOCC2)n1,20
NC(=O)CCN1CCN(Cc2nc(C(c3ccccc3)c3ccccc3)no2)CC1,15
CCCNNC(=O)C(O)(c1ccccc1)c1ccccc1,16
CCOc1ccc(-n2c(-c3ccccc3)c[n+]3c2CCC3)cc1,15
Cc1cc(C)cc(NC(=O)COC(=O)CN=C2NS(=O)(=O)c3ccccc32)c1,4
COCCN=c1scc(-c2ccco2)n1/N=C/c1ccc(O)c(O)c1O,-9
CCN(CC)S(=O)(=O)c1ccc(C(=O)NNc2nc(-c3ccccc3)c3cc(Br)ccc3n2)cc1,21
COc1ccc(C(=O)NC(=S)NNC(=O)c2ccc(NC(C)=O)cc2)cc1Br,5
C/C(=N\Nc1nnc2c3ccccc3n(C)c2n1)c1ccc(C)o1,16
CCCCN(C(=O)CSc1nnc(-c2ccc(OC)cc2)n1CC)c1c(N)n(Cc2ccccc2)c(=O)[nH]c1=O,4
COc1ccc(C/C(C)=N\NC(=O)c2c[nH]c3ccccc23)cc1OC,14
N#CC1=C(N)NC(=S)C(C(N)=O)C1c1ccc([N+](=O)[O-])cc1 (stereo not given),13
CC(c1ccccc1)N1C(=O)C2C3C=CC(C4CC34)C2C1=O (stereo not given),28
COc1ccc(C2/C(=C(\O)c3ccc4c(c3)OCCO4)C(=O)C(=O)N2Cc2ccco2)c(OC)c1 (stereo not given),10
CCc1ccc2nc(Nc3ccc(OC)cc3OC)c(C#N)cc2c1,7
CCOc1ccc(Cn2ccnc2)cc1[N+](=O)[O-],12
CN(C)C(=O)Nc1ccccc1CC[N+](=O)[O-],14
COCc1[nH][nH]c(=O)c1C=Nc1ccc(C(F)(F)F)cc1,14
CCC(=O)N1CCN(c2ccc(NC(=O)c3ccc([N+](=O)[O-])o3)cc2Cl)CC1,8
CC1SCC(NC(=O)c2ccc(Cl)cc2)CS1 (stereo not given),15

# More results follow:
SMILES,Biofilm kill mix
O=S(=O)(Nc1ccccn1)c1cccc(S(=O)(=O)c2ccc(Br)cc2)c1,26
O=C(CSc1nnc(Cc2ccccc2)o1)c1cc(F)ccc1F,10
Cc1ccc(N2C(=O)c3ccccc3C2C(=O)c2cc(C)ccc2O)cc1 (stereo not given),9
O=C(N=C1SCC(=O)N1c1ccccc1Cl)c1ccccc1,7
Cc1ccc(/C=C/C(=O)NCCc2c[nH]c3ccccc23)o1,14
CCCCC(=O)NNC(=O)c1c(O)c2ccccc2[nH]c1=O,38
Cc1ncc([N+](=O)[O-])n1CCO,10
O=C(CCC1CCCN(c2ncccn2)C1)NCc1ccccc1F (stereo not given),8
O=C(c1ccccc1)N1CCN(C(=O)c2ccc([N+](=O)[O-])cc2)CC1,12
O=C(CSc1ncnc2c1oc1ccccc12)NCc1ccco1,6
Cc1ccc(-n2cc(CNC(C)c3cnn(C)c3C)c(-c3ccc(F)cc3)n2)cc1 (stereo not given),12
O=C(COC(=O)CCC1CCCC1)Nc1ccccc1Sc1ccccc1,4
Nc1nonc1-n1nnc(C(=O)N/N=C/c2ccc(O)cc2)c1COc1ccc(F)cc1,15
CCOC(=O)C1(Cc2ccccc2C)CCCN(C(=O)c2cc(C3CC3)[nH]n2)C1 (stereo not given),11
O=C(CSc1ccccc1)NCCCc1ccccc1,17
CN=c1scc(C)n1/N=C/c1cc(Br)c(O)c(Br)c1,9
S=C(c1ccc(-c2ccc(Br)cc2)o1)N1CCCCC1,5
Cc1ccc2[nH]c(=O)c(CN(CCc3ccccc3)C(c3nnnn3Cc3ccco3)C(C)C)cc2c1 (stereo not given),28
CCn1nc(C(=O)OCC(=O)N2CC(=O)Nc3ccccc32)c2ccccc2c1=O,15
Nc1ccc(Nc2nc(-c3cccs3)cs2)cc1,14
C/C(=N\N=C(N)N)c1ccc(Cl)cc1,19
O=c1[nH]c2ccccc2c(O)c1Cc1ccccc1,-2
COc1cc(C(C)=O)ccc1OCC(O)CN(CCO)Cc1ccccc1 (stereo not given),21
CC(=O)c1nc(N2C(=O)CC(Cc3cc(C)cc(C)c3)C2=O)sc1C (stereo not given),15
O=C(CCNC(=O)Cn1ccc2ccccc2c1=O)NCc1ccc(F)cc1Cl,7

# The listing continues:
SMILES,Biofilm kill mix
CC(=O)Nc1ccccc1NC(=O)C/C(C)=N/NC(=O)c1ccncc1,9
Cc1cc(C)n(Cc2cc(C(=O)O)c3ccccc3n2)n1,29
O=C(COC(=O)c1ccc(S(=O)(=O)N2CCCC2)cc1)Nc1ccc(N2CCOCC2)cc1,12
Cc1ccc(F)cc1S(=O)(=O)NCc1ccc(N2CCN(C)CC2)cc1,20
CCn1c(-c2nn(C)c(C)c2Cl)n[nH]c1=S,12
O=C(CNc1cccc2ccccc12)N/N=C/c1ccc(C(=O)O)cc1,21
Cc1ccc(-c2nc(CN(C)C(C3CC3)C3CC3)c(C)o2)cc1,3
Cn1nnnc1SCC(=O)N1CCN(C(=O)c2ccco2)CC1,21
C=CCNC(=S)N/N=C(\C)c1ccc(-n2ccnc2)cc1,14
COc1ccc2nc(Nc3ccccc3OC)sc2c1,0
Cc1ccn2c(CN(C)CCn3nc(C)cc3C)c(C(=O)N3CCCCCC3)nc2c1,8
Cc1cccc(/C(N)=N/OC(=O)COc2ccc(Cl)c(C)c2)c1,2
O=C(NNc1cccc(Cl)n1)c1ccccc1CC[N+](=O)[O-],10
O=C(c1ccccc1)c1ccc(OCCCN2CCCC2)cc1,19
C=CCNC(=O)NC(=O)COC(=O)c1ccccc1Sc1ccc(C(F)(F)F)cc1[N+](=O)[O-],-10
CC(C)(O)C#Cc1ccc(C(=O)N2CCN(c3ccc(F)cc3)CC2)cc1,4
Cc1oc(-c2cc(F)ccc2F)nc1CN1CCN(c2cnccn2)CC1,7
O=C(NN1C(=O)/C(=C/C=C/c2ccccc2)SC1=S)c1ccncc1,12
Cn1cc(CN2CCN(CCO)CC2)c(-c2ccc(Oc3ccccc3)cc2)n1,9
O=C(c1ccccc1)c1cc[n+]([O-])cc1,6
CCCOc1ccc(NC(=O)CC2C(=O)N(CC)C(=S)N2CCNC(C)=O)cc1 (stereo not given),11
Cc1cc([N+](=O)[O-])ccc1NC(=O)C[n+]1ccc(N(C)C)cc1,14
CC(=O)Nc1ccccc1C(=O)C(=O)Nc1ccccc1,14
COc1cc(NC(=O)Cc2cccs2)c(C(=O)O)cc1OC,6
Cc1cc(C)n2c(nc3ccccc32)c1C(=O)NN,1

# Sorted by molecular weight (ascending): part of the list above
SMILES,Biofilm kill mix
O=C(NNc1cccc(Cl)n1)c1ccccc1CC[N+](=O)[O-],10
Cn1nnnc1SCC(=O)N1CCN(C(=O)c2ccco2)CC1,21
O=C(NN1C(=O)/C(=C/C=C/c2ccccc2)SC1=S)c1ccncc1,12

# Among those listed so far, 8 contain an aryl methoxy group:
SMILES,Biofilm kill mix
COc1ccc(C(=O)NC(=S)NNC(=O)c2ccc(NC(C)=O)cc2)cc1Br,5
CCCCN(C(=O)CSc1nnc(-c2ccc(OC)cc2)n1CC)c1c(N)n(Cc2ccccc2)c(=O)[nH]c1=O,4
COc1ccc(C/C(C)=N\NC(=O)c2c[nH]c3ccccc23)cc1OC,14
COc1ccc(C2/C(=C(\O)c3ccc4c(c3)OCCO4)C(=O)C(=O)N2Cc2ccco2)c(OC)c1 (stereo not given),10
CCc1ccc2nc(Nc3ccc(OC)cc3OC)c(C#N)cc2c1,7
COc1cc(C(C)=O)ccc1OCC(O)CN(CCO)Cc1ccccc1 (stereo not given),21
COc1ccc2nc(Nc3ccccc3OC)sc2c1,0
COc1cc(NC(=O)Cc2cccs2)c(C(=O)O)cc1OC,6

# Other records follow.
SMILES,Biofilm kill mix
COc1ccccc1N1C(C)=CC(=C(C#N)c2nc3ccccc3s2)C=C1C,11
CC(C)CCNC(=O)CNC(=S)N(CCCN1CCOCC1)Cc1cccs1,15
O=C(COc1ccc(Cl)cc1Cl)NCC(=O)N/N=C/c1c[nH]c2ccccc12,5
COc1cccc(/C=N/n2c(-c3cc(C)[nH]n3)n[nH]c2=S)c1OC,3
Cc1nn(C)c(C)c1/C=C/C(=O)O,4
CSCCC(NS(=O)(=O)c1cc(C(=O)O)ccc1Cl)C(=O)O (stereo not given),29
Cc1cccc(C)c1NC(=O)CN(C)C(=O)/C=C/c1cccs1,12
Cc1c(Cl)cccc1NC(=S)Nc1ccc2[nH]c(=O)[nH]c2c1,17
COc1cccc2cc(C(=O)OCC(=O)NCc3ccc4c(c3)OCO4)c(=O)oc12,19
Clc1ccc(/C=N/NC2=Nc3cccc4cccc2c34)cc1,5
Cc1cc2cc(CN(CC3CCCO3)C(=S)NCc3ccco3)c(=O)[nH]c2cc1C (stereo not given),14
COc1ccc([N+](=O)[O-])cc1N(CC(=O)O)S(C)(=O)=O,10
Fc1cccc(NC(=S)NCc2ccccc2Cl)c1,18
COc1ccc(-n2cc(CN3CCC(OC)CC3)c(-c3cccc(F)c3)n2)cc1,11
Cc1ccc(C(=O)CNc2cccc(Cl)c2)cc1,17
C/C(=C/C(=O)N1CCc2ccccc21)C(=O)O,14
Cc1ccc2c(c1)C(C)CC(C)(C)N2C(=O)CN1CCN(C)CC1 (stereo not given),18
CCO[C@@H]1OC(C(=O)N2CCN(Cc3ccccc3)CC2)=C[C@H](c2coc3ccccc3c2=O)[C@H]1CCCO,8
COc1ccc2[nH]c(=O)c(CN(C(=O)c3cccnc3)c3ccc(C)cc3C)cc2c1,19
CC(=O)c1sc(-c2ccc(F)cc2)cc1NS(=O)(=O)c1ccc(C)cc1,20
Cc1ccc(Nc2nc(CSc3nnc(-c4ccc(F)cc4)n3C)cs2)cc1,5
COc1ccccc1NC(=O)C(=O)N(c1cccnc1)C(C(=O)NC(C)(C)C)c1ccccc1F (stereo not given),8
Cc1nnc(N/N=C/c2c[nH]c3ccccc23)[nH]c1=O,-11
N#CCCN(Cc1ccccc1)C(=O)Nc1ccc2c(c1)CCO2,15
COC(=O)[C@H](CC(C)C)NC(=O)NCCC1=CCCCC1,19

# 4 entries from above, tab-delimited:
SMILES	Biofilm kill mix
O=C(CSc1ncnc2c1oc1ccccc12)NCc1ccco1	6
COc1ccc(-n2cc(CN3CCC(OC)CC3)c(-c3cccc(F)c3)n2)cc1	11
C=CCNC(=O)NC(=O)COC(=O)c1ccccc1Sc1ccc(C(F)(F)F)cc1[N+](=O)[O-]	-10
Cn1nnnc1SCC(=O)N1CCN(C(=O)c2ccco2)CC1	21

# Retrieved by structure from the list above:
SMILES,Biofilm kill mix
COc1ccc(-n2cc(CN3CCC(OC)CC3)c(-c3cccc(F)c3)n2)cc1,11
Nc1nonc1-n1nnc(C(=O)N/N=C/c2ccc(O)cc2)c1COc1ccc(F)cc1,15
Cc1ccc(C(=O)CNc2cccc(Cl)c2)cc1,17

# (listing goes on)
SMILES,Biofilm kill mix
Cc1c(C(=O)c2ccccc2)c2ccccn2c1CCc1ccccn1,18
COc1ccc(N2CCN(CC(=O)NC(=O)NCc3ccco3)CC2)cc1,6
Cc1cccc(NC(=O)CC23CC4CC(C2)CC(n2nnc(C)n2)(C4)C3)c1,7
CCCCOC(=O)/C=C\C(=O)NC(N)=O,11
O=C(COC(=O)/C=C/c1ccc([N+](=O)[O-])cc1)NCC1CCCO1 (stereo not given),9
CC(=O)N1CC2(NC(=O)c3ccccc3N2)c2ccccc21 (stereo not given),10
O=C(NCC(=O)N1CCN(S(=O)(=O)/C=C/c2ccccc2)CC1)c1ccccc1F,4
O=S(=O)(Cc1ccccc1)N1CCCc2ccccc21,12
COc1ccccc1N=Nc1[nH]c2ccc(C)cc2c1O,7
COc1ccc(/C=C/C(=O)c2cc(Cl)cc(Cl)c2O)c(OC)c1,6
COc1ccc(/C=N/Nc2nc(NCc3ccco3)nc(Nc3ccc(OC)cc3)n2)cc1,4
O=C(/C=C/c1cccc([N+](=O)[O-])c1)n1cnc2ccccc21,3
CCN1CCCC1CNC(=O)c1ccccc1Cl (stereo not given),5
COc1ccc2oc(-c3ccco3)cc(=O)c2c1,14
CC(=O)NS(=O)(=O)c1cccnc1Nc1cccc(Cl)c1C,7
O=C(O)CCc1nn2c3ccccc3n(Cc3ccccc3)c2nc1=O,10
CCCN1C(=O)/C(=C\C=C2/Sc3ccccc3N2CCO)SC1=S,5
O=C(C1CC1)N(Cc1nc2ccccc2c(=O)[nH]1)Cc1cccs1,19
O=C(CSc1nnc(NC(=O)C2CC2)s1)NCc1cccs1,-10
O=C(CN(c1ccccc1)S(=O)(=O)c1ccc(F)cc1)NC1CCS(=O)(=O)C1 (stereo not given),9
O=C(Oc1ccc(N(C(=O)c2ccncc2)S(=O)(=O)c2cccs2)cc1)c1ccncc1,7
CC1CCc2sc(C(=O)OCC(=O)NC(C)C)cc2C1 (stereo not given),-4
COc1ccc(Cl)cc1NC(=O)C(OC)c1ccccc1 (stereo not given),15
Cc1ccc(C(C)C)c(OCC(O)CN2CCN(CCO)CC2)c1 (stereo not given),12
O=C(O)C1=C[C@@H](C2CCCCC2)C[C@@H](OCCCCO)O1,14

# (more compounds)
SMILES,Biofilm kill mix
CC(C)(C)NC(=O)COC(=O)c1ccc(Cl)nc1,12
Cc1ccccc1NC(=O)Cn1c(O)c(N=NC(=O)c2ccccc2O)c2ccccc21,10
COc1ccccc1N1CCN(S(=O)(=O)c2ccc(-n3cnnn3)c(C)c2)CC1,17
CCC1=C(OC(=O)N(CC)CC)N2C(=O)OC(=NCC(=O)OC)[C@]2(C)[C@H]2C1=CC[C@H]1C(=O)N(CC)C(=O)[C@H]12,16
O=C(Nc1ccc(F)cc1F)c1cncc(Br)c1,4
CCOc1ccc2[nH]c3c(N4CCc5ccccc5C4)ncnc3c2c1,18
CC(C)c1ccc(OCc2cccc(C(=O)N/N=C/c3cccnc3)c2)cc1,2
O=C(Nc1ccc(F)cc1)c1ccc2nsnc2c1,17
